Rango-impB inh = prevents formation of the Rango-importin beta complex | Q14974 | Rango CFP/YFP FRET sensor + importin beta, 45 min | Potency, µM (titrated, usually from 92.2 µM), without a hit: at the highest dose inhibition of complex formation | 340,000 tested, 0.031% active | AID 540263; active = rising FRET ratio curve, often small or poorly fitted; inconclusive = mostly compound fluorescence or quenching in the first reads; inactive = flat curves in all reads;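 also: potency is read from the fitted curve at half-maximal effect; 0% = DMSO wells and 100% = buffer wells lacking importin beta; nearly all actives have a fitted effect of over 15% in size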
Target sequence (Q14974 whole entry, looked up): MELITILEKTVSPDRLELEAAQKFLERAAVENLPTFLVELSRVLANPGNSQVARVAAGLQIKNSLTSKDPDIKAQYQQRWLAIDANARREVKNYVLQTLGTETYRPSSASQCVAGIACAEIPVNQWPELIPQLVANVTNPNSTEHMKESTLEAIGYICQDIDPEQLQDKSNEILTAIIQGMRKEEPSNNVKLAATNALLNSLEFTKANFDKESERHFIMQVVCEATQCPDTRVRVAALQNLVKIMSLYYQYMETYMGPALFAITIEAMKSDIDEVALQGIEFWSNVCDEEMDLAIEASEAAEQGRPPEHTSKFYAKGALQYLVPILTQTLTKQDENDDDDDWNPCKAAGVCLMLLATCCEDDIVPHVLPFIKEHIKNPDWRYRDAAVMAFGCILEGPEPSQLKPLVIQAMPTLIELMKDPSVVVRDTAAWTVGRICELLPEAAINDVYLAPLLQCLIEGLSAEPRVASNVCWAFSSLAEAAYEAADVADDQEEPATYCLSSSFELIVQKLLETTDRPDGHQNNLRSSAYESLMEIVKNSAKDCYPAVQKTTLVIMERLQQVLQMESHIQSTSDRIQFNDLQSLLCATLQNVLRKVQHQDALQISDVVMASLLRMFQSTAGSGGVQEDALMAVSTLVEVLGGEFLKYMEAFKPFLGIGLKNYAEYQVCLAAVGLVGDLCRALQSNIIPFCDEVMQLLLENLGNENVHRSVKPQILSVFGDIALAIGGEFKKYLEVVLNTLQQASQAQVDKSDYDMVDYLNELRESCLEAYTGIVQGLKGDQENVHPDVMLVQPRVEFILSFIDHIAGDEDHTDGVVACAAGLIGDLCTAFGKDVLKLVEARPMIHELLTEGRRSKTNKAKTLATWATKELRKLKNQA
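FRET biosensor Rango (snurportin 1 IBB between N-terminal EYFP and C-terminal Cerulean), 50 nM in PBS/1 mM DTT/0.02% Tween-20/0.1% BSA, preincubated 5 min RT with compound; 0.125 microM importin beta added, 45 min RT, CFP/YFP FRET ratio read.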
GLA inh pH 4.5 = inhibitors of human alpha-galactosidase A at pH 4.5; AID 1467; purified enzyme, 4-MU-alpha-Gal fluorescence, pH 4.5; activity change, negative = inhibition, % at 105 µM; 230,000 tested, under 10 active; inconclusive = small, poorly fitted or top-dose-only inhibition, or a rising curve; inactive = flat fitted curve, though single readings scatter; no compound was filed as active;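 also: 0% = full activity with enzyme and -100% = basal without enzyme; dose as in the result columns while the protocol names 77 µM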
Rango release inh = prevents RanGTP from dissociating the Rango-importin beta complex. 340,000 tested, 0.071% active. AID 540253. O95149+P62826. Biochemical FRET Rango-importin beta, RanGTP-induced dissociation. Potency, µM (titrated, usually from 46.1 µM), for inactives: top-dose activity change, negative = inhibition; active means falling FRET ratio curve, often poorly fitted, with flat reads before Ran was added; inconclusive means other falling curves, or compound fluorescence or quenching; inactive means flat or rising ratio curve;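 also: potency is read from the fitted curve at half-maximal effect; % of control where 0% means no effect; nearly all actives have a fitted effect of over 45% in size; -100% = wells without RanGTP and RCC1; the record marks most hits as doubtful in a second field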
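Rango FRET biosensor (snurportin-1 IBB flanked by N-terminal EYFP and C-terminal CFP10) at 0.1 uM, with 0.25 uM importin beta in PBS, 1mM DTT, 0.02% Tween-20, 0.1% BSA. 0.6 uM Ran, 2mM GTP and 0.2 uM RCC1 were then added for 45 min at room temperature. Inhibition read as loss of FRET rise.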
miR-21 reporter = raises the signal of a miR-21 reporter; HeLa miR-21 FLuc reporter, luciferase, 48 h; Potency, µM (top dose mostly 38.3 µM), inactives show at the highest dose reporter change, positive = more light; 340,000 tested, under 10 active; AID 2288; active = well fitted rising curve with a large enough effect; inconclusive = small, poorly fitted or top-dose-only effect; inactive = no such curve, though single readings can be large or run the other way;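 also: % of control where 0% means no effect; miR-21 action dims this reporter so a rising signal means less miR-21 action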
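Using DMEM plus 10% FBS, HeLa miR-21-FLuc cells are incubated with test compounds (final up to about 40uM) for 48 hours; firefly luciferase signal is then imaged following reagent-mediated lysis.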
Numbers without * were called inactive; ? = inconclusive; nt = no result given; [ ] = remark or other dose. Not all compounds are listed; rates above refer to the full screens.

Abbreviations – A = Rango-impB inh; B = GLA inh pH 4.5; C = Rango release inh; D = miR-21 reporter
compound: CN1CCC(N(C)S(=O)(=O)c2ccc(NC(=O)COc3cccc(Cl)c3)cc2)CC1
  A: 1.8% | B: nt | C: 12.6% | D: nt

compound: CC(=O)C1=C(O)C(=O)N(c2ccc(C(=O)O)cc2)C1c1ccccc1 (stereo not given)
  A: 1.8% | B: 1.5 | C: 2.7% | D: 0.5%

compound: COc1cc(OC)cc(C(=O)N/N=C(\C)CC(=O)Nc2ccccn2)c1
  A: 0.8% | B: nt | C: 0.3% | D: 19.5%

compound: CCC(C)NC(=O)CCNS(=O)(=O)c1ccc(Br)cc1 (stereo not given)
  A: -0.8% | B: -8.7 | C: -9.5% | D: -2.4%

compound: Cn1nnc(NC(=S)NC(=O)c2ccco2)n1
  A: 0.3% | B: -0.3 | C: 19.7% | D: -13.1%

compound: c1ccc(C2OC3c4cccc5cccc(c45)C3N2c2ccccc2)cc1 (stereo not given)
  A: -0.6% | B: 1.7 | C: -3.2% | D: -4.4%

compound: C/C=C/c1ccccc1OCc1ccc(C(=O)O)o1
  A: 1.1% | B: 5.3 | C: 1.5% | D: -15.1%

compound: O=C(CNc1cccc(C(F)(F)F)c1)Nc1cccc(S(=O)(=O)N2CCCC2)c1
  A: 0.2% | B: nt | C: 4.9% | D: nt

compound: CCC(NS(=O)(=O)c1ccc(C)cc1)C(=O)N1CCOCCOCCOCCOCC1 (stereo not given)
  A: -2.3% | B: nt | C: 6.5% | D: -0.7%

compound: CCOc1cc(C)nc(N2CCC(C(=O)NC3CC3)CC2)n1
  A: -2.4% | B: nt | C: 7.2% | D: nt

compound: c1ccc(Cc2nnc3sc(Nc4ccccc4)nn23)cc1
  A: -1.1% | B: -3.4 | C: 0.5% | D: -3.0%

compound: C=CCNC1=C(Cl)C(=O)N(c2ccccc2Cl)C1=O
  A: ? | B: 4.5 | C: ? | D: 1.5%

compound: CCC1(C)CC(CC(=O)O)(c2ccccc2OC)CCO1 (stereo not given)
  A: -2.0% | B: -4.9 | C: -25.1% | D: -6.5%

compound: C=CCn1cccc(C(=O)Nc2cc(OC)c(OC)c(OC)c2)c1=O
  A: -2.4% | B: -4.2 | C: -2.7% | D: 6.3%

compound: O=C(NNC(=O)c1cc2ccccc2cc1O)c1cccs1
  A: ? | B: nt | C: ? | D: -45.6%

compound: Cc1ncc(CN2CCCC(C(=O)Nc3ccc(-c4cccc(F)c4)cc3)C2)s1 (stereo not given)
  A: 2.0% | B: nt | C: 0.0% | D: 20.5%

compound: CC(C)c1onc(C(=O)N2CCCCCC2)c1[N+](=O)[O-]
  A: 0.1% | B: -5.3[21.1 µM] | C: -12.7% | D: 5.9%

compound: Cc1cc(-n2c(=S)sc3c(=O)n(-c4ccc(F)cc4)c(SCC(=O)O)nc32)ccc1Cl
  A: ? | B: nt | C: 3.9% | D: -1.1%

compound: COc1cc(OC)cc(-c2nnc(SCC(=O)N3CCCc4ccccc43)o2)c1
  A: ? | B: 2.3 | C: 2.6% | D: -9.8%

compound: COc1ccc(Cl)cc1NC(=O)C(C)OC(=O)c1ccc(NS(=O)(=O)c2ccc3[nH]c(=O)[nH]c3c2)cc1 (stereo not given)
  A: 0.5% | B: -23.7 | C: -0.7% | D: -7.5%

compound: COc1cc(S(=O)(=O)n2nc(C)cc2C)c(OC)cc1Cl
  A: 1.0% | B: 3.6 | C: 13.8% | D: -2.7%

compound: CCCc1ccc(-c2cc(C(=O)NCCc3ccc(S(N)(=O)=O)cc3)c3ccccc3n2)cc1
  A: -3.3% | B: -2.0 | C: 4.1% | D: -22.0%

compound: Cn1cc(SCC(=O)Nc2ccc3c(c2)OCCO3)c2ccccc21
  A: 0.0% | B: -1.8 | C: -0.9% | D: -34.9%

compound: N/C(=N\OC(=O)Nc1ccccc1)c1ncc([N+](=O)[O-])s1
  A: -0.4% | B: -6.7 | C: 7.7% | D: 16.3%

compound: COc1ccc(NC(=S)N2CCCCC2c2cccnc2)cc1 (stereo not given)
  A: 2.7% | B: 8.5 | C: -2.7% | D: -7.1%

compound: CCCCCSc1nnc(-c2ccccc2NC(C)=O)c(=O)[nH]1
  A: 0.0% | B: 1.0 | C: 8.7% | D: -5.1%

compound: CCC1(c2ccccc2)C(=O)N(C(=O)OC(C)(C)C)N1C(=O)OC(C)(C)C (stereo not given)
  A: -4.0% | B: nt | C: -2.5% | D: nt

compound: CC(C)C(=O)Nc1ccc(N2CCCC2)cc1
  A: 1.0% | B: -7.9 | C: 2.0% | D: 0.2%

compound: CCn1c(SCc2ccccc2)nnc1-c1cccnc1
  A: 2.3% | B: -0.7 | C: 17.6% | D: -2.2%

compound: CCOc1ccc(-c2nc(CSc3nncs3)cs2)cc1OC
  A: -0.2% | B: 1.1 | C: -0.1% | D: -39.8%

compound: Cc1cc(C)cc(OCc2nnc(SCC(=O)c3ccc(Br)cc3)o2)c1
  A: ? | B: -12.8 | C: -2.1% | D: -4.0%

compound: O=c1[nH]c(-c2ccccc2)ncc1Oc1ccccc1
  A: 4.4% | B: nt | C: -0.7% | D: nt

compound: CC1CCN(C(=O)CCc2nnc3ccc(N4CCC5(CC4)OCCO5)nn23)CC1
  A: -1.1% | B: nt | C: -7.6% | D: -3.4%

compound: CC(NC(=S)Nc1ccccc1Cl)C(c1ccccc1)N1CCOCC1 (stereo not given)
  A: 2.0% | B: -1.6 | C: 0.7% | D: 0.7%

compound: CCc1ccccc1OCC(=O)Nc1ccc(S(N)(=O)=O)cc1
  A: -2.7% | B: -1.6 | C: 8.9% | D: -11.0%

compound: O=C(Nc1ccncc1)Nc1ccc(Br)cc1Cl
  A: -1.9% | B: nt | C: 6.5% | D: 3.7%

compound: C=CCOc1ccc2c(CC)cc(=O)oc2c1C
  A: 0.0% | B: -0.8 | C: 29.1% | D: -30.4%

compound: C=CCc1ccccc1OCC(O)CN1CCOCC1 (stereo not given)
  A: -4.0% | B: nt | C: 14.6% | D: nt

compound: Cc1ccc(C2/C(=C(/O)c3cnn(-c4ccccc4)c3C)C(=O)C(=O)N2CCN2CCOCC2)o1 (stereo not given)
  A: -4.1% | B: 3.0 | C: -14.3% | D: -49.6%

compound: CC(=O)NC(CC(=O)NC1CCCc2ccccc21)c1ccccc1 (stereo not given)
  A: -0.8% | B: nt | C: 15.3% | D: -0.1%

compound: C/C(=N\NC(=O)Cn1ccc(C(F)(F)F)n1)c1ccc2c(c1)OCO2
  A: -1.4% | B: 7.4 | C: 5.6% | D: -3.6%

compound: CCC(=O)N1CCN(c2ccc(NC(=O)c3ccc(N4CCOCC4)c([N+](=O)[O-])c3)cc2)CC1
  A: -1.0% | B: nt | C: 4.9% | D: 1.0%

compound: Cc1cc(S(=O)(=O)NCC(c2ccc3c(c2)OCO3)N2CCOCC2)ccc1F (stereo not given)
  A: 0.2% | B: nt | C: -0.7% | D: nt

compound: Cc1ccc(S(=O)(=O)CCC(=O)OCC(=O)Nc2cc(S(=O)(=O)N3CCOCC3)ccc2Cl)cc1
  A: -4.9% | B: nt | C: 1.4% | D: nt

compound: N=c1c2c3c(sc2ncn1N)CCC3
  A: 2.9% | B: 5.3 | C: 24.7% | D: -3.4%

compound: CCNC(=S)N(CCN(CC)CC)Cc1cc2cc3c(cc2[nH]c1=O)OCCO3
  A: 0.0% | B: nt | C: -2.1% | D: 2.6%

compound: COc1ccc(CN2C(=O)c3ccccc3C2C(=O)NCC2CCCO2)c(OC)c1 (stereo not given)
  A: 0.5% | B: -5.6 | C: -19.3% | D: -4.0%

compound: CCOC(=O)C1CCN(c2nc(-c3ccccc3)nc3c2oc2ccccc23)CC1
  A: 0.0% | B: -14.6 | C: 1.4% | D: 4.7%

compound: Cc1c(C(=O)Nc2ccc3c(c2)OCCO3)sc2ncnc(N3CCCCC3C)c12 (stereo not given)
  A: -1.7% | B: nt | C: -16.3% | D: -17.9%

compound: CCCC(=O)NC(=S)Nc1cccc2c(O)cccc12
  A: 0.0% | B: 4.7 | C: -5.2% | D: -7.9%

Rewritten as labelled records: three of the compounds above
Cc1cc(C)cc(OCc2nnc(SCC(=O)c3ccc(Br)cc3)o2)c1
  Rango-impB inh: ?; GLA inh pH 4.5: -12.8; Rango release inh: -2.1%; miR-21 reporter: -4.0%

O=c1[nH]c(-c2ccccc2)ncc1Oc1ccccc1
  Rango-impB inh: 4.4%; GLA inh pH 4.5: nt; Rango release inh: -0.7%; miR-21 reporter: nt

CC1CCN(C(=O)CCc2nnc3ccc(N4CCC5(CC4)OCCO5)nn23)CC1
  Rango-impB inh: -1.1%; GLA inh pH 4.5: nt; Rango release inh: -7.6%; miR-21 reporter: -3.4%

Following part
Abbreviations – A = Rango-impB inh; B = GLA inh pH 4.5; C = Rango release inh; D = miR-21 reporter
compound: O=C1NC(c2ccc(O)cc2)Nc2ccccc21 (stereo not given)
  A: 0.1% | B: nt | C: -14.5% | D: 7.7%

compound: Cc1ccc(S(=O)(=O)Nc2cccnc2)cc1
  A: 0.4% | B: -1.5 | C: 3.1% | D: 0.7%

compound: CCOC(=O)c1ccc2c(c1)N(Cc1ccccc1C)C(=O)c1ccccc1S2=O (stereo not given)
  A: 2.7% | B: -4.5 | C: 7.0% | D: 3.6%

compound: CC(C)(C)n1nnnc1C(c1ccccc1F)N1CCN(C2CCCC2)CC1 (stereo not given)
  A: -3.2% | B: -0.4 | C: 2.2% | D: -8.9%

compound: CCOc1ccc2nc(C)cc(Nc3ccc4c(c3)OCCO4)c2c1
  A: -2.6% | B: 1.8 | C: 4.4% | D: 0.5%

compound: S=C(Nc1ccc(Oc2ccc(NC(=S)NC3CCCCC3)cc2)cc1)NC1CCCCC1
  A: -0.9% | B: 0.7 | C: 2.5% | D: 11.7%

compound: Cc1ccc(C(=O)NCC(=O)NCCCc2ccccc2)s1
  A: -1.2% | B: nt | C: -2.6% | D: 1.2%

compound: Cc1ccc(-c2nnc(SCC(=O)N/N=C/c3c(C)nn(-c4ccccc4)c3C)n2-c2ccc(C)cc2)cc1
  A: -0.5% | B: -9.2 | C: -1.0% | D: -2.8%

compound: Cc1cc(C)cc(NC(=O)CSc2nc3c(c(=O)n2C)SC(C)C3)c1 (stereo not given)
  A: -1.7% | B: 7.5 | C: 1.2% | D: -1.7%

compound: Cc1nn(C)cc1/C=N\NC(=O)Cc1ccc([N+](=O)[O-])cc1
  A: -1.5% | B: -5.8 | C: -10.5% | D: -8.3%

compound: CCC(C)NC(=O)c1ccc(CSCc2cccc(F)c2)o1 (stereo not given)
  A: 3.9% | B: -1.7 | C: 0.1% | D: -12.4%

compound: Cc1ccccc1-c1nc2ccccc2c(=O)n1C1CCS(=O)(=O)C1 (stereo not given)
  A: -0.1% | B: -4.6 | C: -2.0% | D: -0.4%

compound: Brc1ccc(OCCCOc2cccc3cccnc23)cc1
  A: 3.4% | B: nt | C: -6.3% | D: -34.2%

compound: CC(NC(=O)CN(C)CC(=O)Nc1ccc(F)c(F)c1F)c1ccccc1 (stereo not given)
  A: -0.9% | B: 3.3 | C: 1.5% | D: -0.9%

compound: COc1cc(OC)c(OC)cc1CN1CCCC(C(=O)c2sccc2C)C1 (stereo not given)
  A: 8.1% | B: -9.1 | C: 17.6% | D: 5.2%

compound: COc1ccc(S(=O)(=O)Nc2ccc(F)c(F)c2)cc1C(=O)N1CCOCC1
  A: -0.4% | B: nt | C: -0.4% | D: 0.1%

compound: COc1cc(C2/C(=C(\O)c3ccc4c(c3)OCCO4)C(=O)C(=O)N2Cc2ccco2)cc(OC)c1OC (stereo not given)
  A: -2.5% | B: nt | C: -16.1% | D: -3.2%

compound: CCC(CCNC(=O)c1ccccc1)(CCNC(=O)c1ccccc1)[N+](=O)[O-]
  A: -1.1% | B: nt | C: -14.1% | D: nt

compound: Cc1ccc(O)c(NC(=O)CCCC(=O)O)c1
  A: -0.1% | B: 4.1 | C: -1.9% | D: -4.8%

compound: Cc1ccc(C(=O)CSc2nnc(CNc3ccc(C)cc3C)n2Cc2ccco2)cc1
  A: -3.1% | B: -11.7 | C: -5.9% | D: -1.5%

compound: N#Cc1ccc(Cl)cc1NC(=O)COC(=O)c1cccc(S(=O)(=O)N2CCOCC2)c1
  A: -3.7% | B: nt | C: -7.6% | D: nt

compound: COC(=O)C(Nc1nccs1)(OC)C(F)(F)F (stereo not given)
  A: 1.6% | B: 3.3 | C: -11.0% | D: -1.8%
